Compound activity: PubChem BioAssay, several laboratories
T cruzi repl: blocks replication of Trypanosoma cruzi. T. cruzi beta-gal in NIH3T3, luminescence, 90 h. inhibition, % (test concentration not listed). 1.4% of 300,000 active;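 active = mean inhibition across valid replicates above about 55%, limit read from the data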;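 also: signal also drops with host cell toxicity which is not excluded here; 0% = plate median of DMSO wells and 100% = zero luminescence signal; higher percent means less beta-gal luminescence so fewer parasites; stock transfer was 50 nL into about 50 µL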
Beta cell apopt: blocks beta cell apoptosis. INS-1E cytokine-induced death, ATP luminescence, 48 h; percent of positive-control rescue, neutral wells zero. 0.8% of 300,000 active. protection from apoptosis, % (test concentration not listed);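 active = all replicates at 75% or more, or half of them and the mean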;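 also: 0% = cytokine-treated negative control wells and 100% = positive control rescue; higher means more ATP so stronger rescue from cytokine killing; wells of about 40 µL received 100 nL stock; the first replicate is given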
ALR inh: human ALR oxidase inhibition via reduced H2O2 | 3.8% of 290,000 active | P55789 | purified ALR, DTT oxidation, H2O2 HRP-luminol luminescence | inhibition, % (test concentration not listed);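 active = mean and each replicate at 75% or more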;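 also: stock transfer was 7.5 nL into about 7.5 µL; 0% = neutral wells and 100% = wells with inactivated enzyme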
Target sequence (P55789 whole entry, looked up): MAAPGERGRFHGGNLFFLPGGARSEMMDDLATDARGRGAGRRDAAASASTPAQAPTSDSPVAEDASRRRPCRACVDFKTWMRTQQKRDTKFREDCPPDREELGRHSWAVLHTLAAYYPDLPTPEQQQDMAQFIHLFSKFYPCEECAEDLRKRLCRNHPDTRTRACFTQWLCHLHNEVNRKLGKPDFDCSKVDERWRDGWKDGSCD
rRNA inh HTS: inhibitors of bacterial rRNA selective over humanized ribosomes | 1.6% of 350,000 active | GFP signal change (wild-type ribosome), % (concentration not given with the values) | E. coli WT GFP vs humanized-ribosome RFP mutants, fluorescence, 24 h; hits give low values; DMSO median 0, no signal -100 | AID 720706;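 active = significant combined selectivity score with lowered wild-type GFP, culture density cut under 30%, mutant RFP and density less affected; inactive = any of these conditions unmet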; also: one replicate is shown; some compounds called inactive have numbers as strong as hits
Beta2AR agonist: agonists of human beta-2 adrenergic receptor inducing internalization; P07550; Am2.2-beta2AR cells, FAP receptor internalization, flow cytometry; reference of the scale not given here; response, % (test concentration not listed); 0.43% of 340,000 active;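 active = response above a set limit, near 3 SD of response in nonfluorescent compounds, cut at about 42% in these data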;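 also: stock transfer was 100 nL into about 11 µL; a reference agonist was the positive control; negative values mostly stem from fluorescent compounds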
Target sequence (P07550 whole entry, looked up): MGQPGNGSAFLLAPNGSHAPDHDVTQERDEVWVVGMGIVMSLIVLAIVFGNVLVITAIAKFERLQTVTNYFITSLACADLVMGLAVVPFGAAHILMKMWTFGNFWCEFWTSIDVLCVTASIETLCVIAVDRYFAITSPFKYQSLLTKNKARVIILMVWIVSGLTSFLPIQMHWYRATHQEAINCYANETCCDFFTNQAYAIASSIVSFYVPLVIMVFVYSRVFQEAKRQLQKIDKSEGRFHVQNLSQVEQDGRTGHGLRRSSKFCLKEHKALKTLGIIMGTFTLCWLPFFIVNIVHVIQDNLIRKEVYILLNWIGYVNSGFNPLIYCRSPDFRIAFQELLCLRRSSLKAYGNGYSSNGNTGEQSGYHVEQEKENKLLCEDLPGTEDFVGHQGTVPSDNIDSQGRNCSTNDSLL
A1 inh: inhibitors of the anti-apoptotic protein A1, read as caspase activation; MEF A1-2A-BIM cells, Caspase-Glo 3/7 luminescence, 3 h; percent of clofoctol response, vehicle zero; caspase activation, % (no concentration beside the values); 0.066% of 330,000 active; AID 2462;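 active = over half of replicate activation scores above 10%, or exactly half above 10 with the replicate mean above 10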;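 also: wells of about 30 µL received 50 nL stock; many hits fall short of the cut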
LANA-H2B inh: blocks KSHV LANA binding to histone H2A/H2B. Q9QR71. cell-free LANA-H2A/H2B peptide, fluorescence polarization. inhibition, % (no concentration beside the values). 0.6% of 320,000 active. AID 2629; in the data active = inhibition mostly above about 10%, no sharp cut-off; inactive = mostly below about 6.7%;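 also: stock transfer was 7.5 nL into about 10 µL; 0% = median of vehicle wells and 100% = median of positive control wells; one replicate is shown; the record names a cut of 25% in any replicate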
Calb FLC: C. albicans growth modulation with fluconazole | 0.57% of 300,000 active | C. albicans CaCi-2 (fluconazole-resistant clinical isolate) + fluconazole, Alamar Blue growth, 48 h | growth inhibition, % (concentration not given with the values);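 active = most replicates above 75%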;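 also: all wells also contain fluconazole at 8 µg/ml as a sub-toxic cotreatment; 0% = median of DMSO wells and 100% = median of geldanamycin control wells; wells of about 8 µL received 7.5 nL stock; the first replicate is given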
rRNA inh HTS OD600: second read-out of rRNA inh HTS, no call of its own (marks repeat the call); OD600 change, %; measured here: OD600 growth;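 optical density of the mix in the first replicate; 0 = DMSO median and -100 = no signal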
rRNA inh HTS RFP: also measured in rRNA inh HTS; calls as there; RFP signal change, %; measured here: RFP humanized mutant strains;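 first replicate; 0 = DMSO median and -100 = no signal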
* = called active by the depositor; x = not tested or not shown.

A first look:
The line under a structure holds: T cruzi repl | Beta cell apopt | ALR inh | rRNA inh HTS | rRNA inh HTS OD600 | rRNA inh HTS RFP | Beta2AR agonist | A1 inh | LANA-H2B inh | Calb FLC
COc1cc(C)nc(N2CCCC(C(=O)Nc3cccc(Cl)c3Cl)C2)n1 (stereo unspecified)
    -5 | 8 | 1 | x | x | x | -1 | -0.6 | 0.9 | -1
C=CCc1c(C)c(C#N)c2nc3ccccc3n2c1N1CCCCC1
    10 | 2 | -11 | 15 | 11 | -1.0 | 1 | -0.9 | -1.0 | 4
Cc1cc2oc(=O)c(CC(=O)NCCCO)c(C)c2c2occ(C(C)(C)C)c12
    1 | -9 | -4 | -11 | -15 | -1.7 | 13 | 1.5 | -0.2 | 16
O=C(Nc1ccccc1)N(CCc1nc2ccccc2[nH]1)C1CCCC1
    -4 | 6 | -1 | x | x | x | -16 | 1.0 | -7.5 | 18
Cc1cc(C)cc(NC(=O)NCc2c(-c3ccccc3)noc2C)c1
    -11 | 2 | 3 | 3 | 14 | -3.8 | -2 | 1.6 | 2.8 | -6

All compounds of this part, from the first entry:
The line under a structure holds: T cruzi repl | Beta cell apopt | ALR inh | rRNA inh HTS | rRNA inh HTS OD600 | rRNA inh HTS RFP | Beta2AR agonist | A1 inh | LANA-H2B inh | Calb FLC
COc1cc(C)nc(N2CCCC(C(=O)Nc3cccc(Cl)c3Cl)C2)n1 (stereo unspecified)
    -5 | 8 | 1 | x | x | x | -1 | -0.6 | 0.9 | -1
C=CCc1c(C)c(C#N)c2nc3ccccc3n2c1N1CCCCC1
    10 | 2 | -11 | 15 | 11 | -1.0 | 1 | -0.9 | -1.0 | 4
Cc1cc2oc(=O)c(CC(=O)NCCCO)c(C)c2c2occ(C(C)(C)C)c12
    1 | -9 | -4 | -11 | -15 | -1.7 | 13 | 1.5 | -0.2 | 16
O=C(Nc1ccccc1)N(CCc1nc2ccccc2[nH]1)C1CCCC1
    -4 | 6 | -1 | x | x | x | -16 | 1.0 | -7.5 | 18
Cc1cc(C)cc(NC(=O)NCc2c(-c3ccccc3)noc2C)c1
    -11 | 2 | 3 | 3 | 14 | -3.8 | -2 | 1.6 | 2.8 | -6
COc1ccc(NS(=O)(=O)c2ccc3oc(=O)ccc3c2)cc1
    -3 | 1 | -6 | -1 | 3 | -0.9 | -8 | -0.5 | 6.4 | 1
O=C(NCCCN1CCCC1=O)c1cccc(S(=O)(=O)N2CCN(c3ccccc3)CC2)c1
    -3 | -1 | 33 | 6 | 8 | 3.3 | 1 | -1.2 | 3.1 | -8
CC(=O)Nc1ccc(NC(=O)C(C)Sc2n[nH]c(-c3ccc(C)cc3)n2)cc1 (stereo unspecified)
    -6 | 6 | 47 | -10 | -9 | 3.4 | 11 | -0.4 | -3.1 | 2
COc1ccc(CCn2c(=N)c(C(=O)NCC3CCCO3)cc3c(=O)n4cccc(C)c4nc32)cc1OC (stereo unspecified)
    15 | 6 | -14 | 0 | 5 | -6.2 | 11 | -0.2 | 4.6 | 0
CCn1cnc2sc(C(=O)O)c(C)c2c1=O
    -2 | -5 | -10 | x | x | x | -3 | 0.7 | -0.8 | -30
COc1ccc(S(=O)(=O)N(CC(=O)NCCSc2ccccn2)c2ccccc2)cc1
    9 | -8 | -11 | 4 | 11 | -2.2 | 23 | 3.8 | -0.6 | -4
CCN(c1ccc(NC(=O)COC(=O)CCc2cc(OC)c(OC)c(OC)c2)cc1)C(C)C
    1 | x | x | -5 | 0 | 0.6 | 1 | x | x | 0
COc1ccccc1CNC(=O)C(NC(=O)c1ccc(C)cc1)C(C)C (stereo unspecified)
    6 | -4 | -2 | 20 | 18 | 5.7 | 0 | 2.4 | -0.5 | -14
CCCCc1nc(Cl)c(C#N)c2c1CCC2
    0 | -2 | x | 7 | 9 | -1.0 | 7 | -0.5 | -2.6 | -1
Cc1ccc(S[C@@H](CCN2CC[C@H](C)CCC2=O)c2ccccc2)cc1
    42 | -1 | -6 | -28 | -38 | 18 | -4 | 0.6 | 4.3 | 2
CC(C)[C@H]1C=C(C(=O)O)O[C@@H](OCc2ccc(CO)cc2)C1
    -16 | -10 | x | 6 | 8 | 0.0 | 5 | -0.8 | -0.7 | 3
CC(=O)N/C(=C/c1ccc(OS(=O)(=O)c2ccc(C)cc2)cc1)C(=O)NCCO
    -11 | -1 | 1 | 9 | 10 | -1.6 | 3 | -0.2 | 2.6 | 0
Cc1ccc(Cn2c(C3CCCN3c3nc(C)cs3)nc3cc(C(=O)NCCCO)ccc32)cc1 (stereo unspecified)
    7 | -7 | -12 | 5 | -3 | 2.0 | 0 | 1.2 | 0.5 | 12
COc1cc(/C=N/Nc2ccc(Cl)nn2)cc(OC)c1O
    -7 | 4 | 95* | -1 | 6 | -3.3 | -3 | 0.5 | -1.4 | 0
CCOC(=O)C(=O)N(Nc1ccccc1C)c1ccccc1C
    -9 | -4 | -2 | -22 | -21 | -3.3 | 1 | -0.7 | -2.3 | 0
CC(C)CCNC(=O)COc1ccc(C(=O)c2ccccc2)cc1
    12 | 2 | 3 | -23 | -24 | -4.0 | 9 | 0.5 | 2.9 | 6
c1ccc(CCCCN2CCN=C2Nc2ccccc2)cc1
    x | 0 | 23 | 3 | 0 | 1.3 | -1 | 0.2 | 0.6 | x
Cc1nnc2sc(SCC(=O)Nc3ccc(Cl)cc3)nn2c1=O
    -11 | 0 | 93* | 9 | 4 | 1.1 | -2 | 0.4 | 2.2 | 0
CSc1ccccc1NC(=O)c1ccc(C)o1
    -5 | -5 | -4 | x | x | x | 3 | -1.0 | -1.5 | 5
O=C(C[n+]1ccc(/C=C/c2ccccc2)cc1)c1ccc2c(c1)OCCO2
    27 | -1 | -32 | -10 | 0 | 14 | 6 | 0.4 | -5.4 | -2
O=C(Nc1ccncc1)C1CCN(S(=O)(=O)c2cccc(C(F)(F)F)c2)CC1
    x | -2 | -11 | 3 | -18 | 10 | 6 | -0.1 | 1.5 | x
O=C(CCN1C(=O)/C(=C/c2ccccc2F)SC1=S)Nc1ccccn1
    -24 | -7 | -8 | -5 | 8 | -1.4 | -2 | 0.1 | 2.2 | 6
COc1ccccc1C(=O)NCCn1cc(SCC(=O)NCc2ccco2)c2ccccc21
    x | -2 | 0 | -24* | -16* | 1.5* | -8 | 0.8 | -1.2 | 3
O=C(NCCCN1CCCC1=O)c1ccc(OC(F)(F)F)cc1
    -7 | -2 | -13 | 31 | 34 | -0.9 | 8 | -0.5 | -6.1 | 7
Cc1onc(-c2ccccc2Cl)c1C(=O)Nc1ccccc1N1CCOCC1
    5 | 1 | -21 | x | x | x | 1 | -0.2 | 0.1 | 7
O=C(c1cc(COc2ccc(F)cc2Cl)on1)N1CCCC(OCc2cccnc2)C1 (stereo unspecified)
    44 | 1 | -6 | -29 | -43 | -2.2 | -19 | 0.4 | 0.3 | -12
COc1nc(C#N)nc(N(C)C)n1
    7 | -3 | -13 | x | x | x | 7 | 0.1 | -5.3 | -1
COc1ccc(NC(=O)CCc2ccccc2)cc1S(=O)(=O)N1CCCCC1
    x | -13 | -5 | x | x | x | -7 | 0.3 | -1.4 | x
O=[N+]([O-])c1ccc(NCCCNS(=O)(=O)c2ccccc2)cc1
    -4 | 3 | -3 | -31 | -27 | -2.0 | 6 | 0.4 | -4.2 | -2
O=C(O/N=C/c1ccc(Cl)cc1)C1CCCCC1
    -10 | -2 | x | 6 | -3 | -0.5 | 1 | 1.3 | -1.5 | -8
CN1C(=O)CSC1=S
    -14 | 4 | -14 | 5 | 6 | -1.0 | -6 | 0.8 | -6.2 | x
Cc1cc(C)c(Cn2c3ccccc3c3cnn(CC(=O)NCc4ccccn4)c(=O)c32)c(C)c1
    30 | 10 | 3 | 5 | 11 | -3.3 | 4 | 0.4 | -1.3 | 4
COc1ccc(NC(=S)N2CCCN(Cc3cc(C)ccc3C)C2)cc1
    33 | -8 | 1 | 2 | -4 | -0.6 | -2 | 0.2 | 4.2 | 19
CC(C)CCSc1nc(N)c(C#N)cc1C#N
    67* | 13 | -3 | x | x | x | -9 | 0.5 | 0.1 | 36
O=S(=O)(c1ccccc1)c1cnn2c(C(F)(F)F)cc(-c3ccc(F)cc3)nc12
    5 | -3 | x | x | x | x | 0 | -0.6 | 2.6 | -2
Cc1cc(OCC(=O)NC2CCCCC2)ccc1Cl
    -1 | 0 | -1 | x | x | x | -11 | -0.2 | -3.7 | 1
CC(C)(Oc1cccc2ccccc12)C(=O)O
    -6 | -3 | -13 | x | x | x | 3 | 0.1 | 1.6 | 6
CC1CN(C(=O)COC(=O)COc2ccc(C#N)cc2)CC(C)O1 (stereo unspecified)
    -15 | -1 | 6 | 13 | 24 | -2.2 | 1 | 1.2 | -3.0 | -5
O=C(OCC(=O)N1CCCC1)c1ccc(Cl)c([N+](=O)[O-])c1
    -8 | -7 | x | 5 | 9 | -1.6 | 9 | 0.2 | 7.1 | -15
COc1cc(OC)c(S(=O)(=O)Nc2ccc(C)cn2)cc1NC(C)=O
    -14 | -4 | -23 | x | x | x | -2 | -0.6 | 0.5 | -6
COc1ccc(/C=N/NC(=O)c2ccoc2C)cc1O
    10 | 2 | 99* | x | x | x | 8 | -8.1 | -2.9 | -10
CC(C)CC(=O)Nc1ccc(C(=O)Nc2cccc(O)c2)cc1
    -23 | 6 | x | -15 | -9 | -5.9 | 2 | -1.6 | 0.6 | -17

These rows are one share of the data; count on the stated rates, not on these rows.
